NPYLR7 ag = mosquito NPYLR7 agonism; HEK293T NPYLR7/Galpha15, GCaMP6s calcium fluorescence; hit rate 0.15% among 270,000; activation, % at 10 µM; AID 1259423; in the data active = activation above about 40%;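 note: 0% = vehicle and 100% = reference agonist at the receptor; some compounds past the cut are filed as inactive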
NPYLR7 ag max-min = recorded beside NPYLR7 ag, whose call it bears; activation, %; measured here: Max-Min RFU normalised activation; some inactives read as strong as hits;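 span of the calcium signal over five minutes; 0% = vehicle and 100% = native peptide agonist; compound fluorescence can raise it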
* = called active by the depositor; & = joins results of further samples. Some of the compounds tested. The share of hits here may be higher or lower than overall.

SMILES	NPYLR7 ag	NPYLR7 ag max-min
CC(=O)NC(NC(C)=O)c1ccccc1F	4.9	3.9
Cc1ccc(NC(=O)CNC(=O)C(c2cccc(F)c2)N(C)C)c(F)c1 (stereo not drawn)	22.7	15.6
O=C(CCn1cnc2ccccc21)NN=Cc1ccccc1	10.1	-0.2
CC(C)CN(Cn1[nH]c(C(C)(C)C)nc1=S)C1CC1	9.6	5.7
COc1cccc(NC(=O)N2CC(C)(C)SC23C(=O)N(Cc2ccccc2)c2ccc(Cl)cc23)c1 (stereo not drawn)	5.7	9.4
Cc1cccc(NC(=O)N2CC(=O)NC3CCCCC32)c1Cl (stereo not drawn)	2.3	-1.3
O=C(CSc1nnc(-c2cccs2)o1)N(C1CCCC1)C1CCS(=O)(=O)C1 (stereo not drawn)	-1.3	27.8
COc1ccc(OC)c(NS(=O)(=O)c2cc(C)ccc2C)c1	-6.4	-8.6
O=C(CN1C(=O)COc2ccccc21)NCC(=O)Nc1ccccc1Br	10.9	14.4
CCOCCn1ccc2c(OCC(=O)NCCOC)cccc2c1=O	0.1	12.6
O=C(CN1CCC(O)CC1)N(Cc1ccccc1)c1ccccc1	-1.4&-10.3	-6.2&-11.3
Cc1ccc(C(=O)NCc2nnc(SCC(=O)N3CCc4ccccc43)n2-c2ccc(F)cc2)cc1[N+](=O)[O-]	-4.3	5.3
CS(=O)(=O)N(CC(=O)Nc1c(F)cccc1F)c1ccccc1	3.7&-1.5	1.3&-3.0
Cc1ccc(S(=O)(=O)N2CCN(C(=O)NCCc3ccccc3)CC2)cc1	-14.0	-15.6
CCN(CC)C(=O)c1ccc(OCc2csc(-c3ccco3)n2)c(OC)c1	-8.5	-9.8
COc1cccc(Nc2nnc(C(O)C(C)(C)C)s2)c1 (stereo not drawn)	15.1	12.1
Cn1nnnc1SCCn1ccnc1-c1cc2c(cc1Cl)OCO2	1.4	-9.1
Cn1c(SCC(O)c2ccc(F)c(F)c2)nnc1-c1cccs1 (stereo not drawn)	-0.9	-0.8
COc1ccc(CC(=O)Nc2ccc(N3CCC(C)CC3)c(C(=O)NCCc3ccccc3)c2)cc1	22.7	20.0
O=C1CSC(c2cn(-c3ccccc3)nc2-c2ccccc2)N1Cc1ccccc1 (stereo not drawn)	14.1	3.0
COc1ccc(-c2csc(=Nc3ccccc3Br)n2Cc2cccc(OC)c2)cc1	1.2	-5.1
Nc1cc(-c2cnc3ccccc3n2)c2cc[nH]c2n1	11.6	9.0
CCOC(=O)C1CCN(C(=O)c2cc(-c3ccc(Cl)cc3)n(-c3cccc(F)c3)c2C)CC1	-9.3	-13.9
CN(C)S(=O)(=O)c1ccc(=O)n(Cc2ccc(C(C)(C)C)cc2)c1	-0.5	2.8
CC1CCCC(CCC#N)/C1=N\Nc1ccc([N+](=O)[O-])cc1[N+](=O)[O-] (stereo not drawn)	-1.7	-4.2
CCc1nnsc1C(=O)N1CCc2[nH]nc(-c3cccc(OC)c3)c2C1	0.3	-2.5
O=C(Nc1cccnc1)NC(c1ccccc1)C1CCCC1 (stereo not drawn)	6.1	2.3
CCOC(=O)C1C(=N)OC2=C(C(=O)CCC2)C1c1ccc(Br)cc1 (stereo not drawn)	-13.8	-22.2
NC(=O)CC12CC3CC(C1)CC(C(N)=O)(C3)C2	6.5	9.4
CCc1csc(CNC(=O)c2ccc(NCC3CCCCN3C)nc2)n1 (stereo not drawn)	0.3	-2.3
CC(C)N1CCC(NC(=O)C2CCN(C(=O)c3ccc(F)cc3)CC2)CC1	-0.8	2.3
CCCC1=NN(C(C)=O)C(C(=O)Nc2cccc(CO)c2C)O1 (stereo not drawn)	1.2	-2.3
CCOc1ccc(Cc2nnc(Nc3cc(C)ccc3C)[nH]c2=O)cc1	11.6	6.8
CCCc1cc(C(=O)NCc2cccnc2N(C)C)ccn1	3.3	3.6
CCC1CC(C)CN1C(=O)C1CSC(=O)N1 (stereo not drawn)	6.0	7.0
CC1CN(CC(=O)NCC(=O)N2CCCC2)c2ccc(F)cc2O1 (stereo not drawn)	-6.0	651.8
CC(C)(C)CC(=O)Nc1nc(-c2cc(F)ccc2F)cs1	0.6	0.6
COCCCN1C(=O)c2ccc3c(=O)n4c5ccccc5nc4c4ccc(c2c34)C1=O	-5.2	-15.2
Cc1nn(C)c(Cl)c1CN1CCC(c2ccnc(-c3ccncc3)c2)C1 (stereo not drawn)	17.2	4.6
COc1ccc2c(c1)CCC1C2CC[C@@]2(C)C1CC[C@@H]2NCCCCCCN1C(=O)C=CC1=O (stereo partly drawn)	5.1	-32.3
CC1ON=C(c2ccc(N(C)C)cc2)N(Cc2ccc(F)cc2)C1=O (stereo not drawn)	10.6	2.6
Cc1c(N=C2N=C(NC(=O)NC(C)(C)C)c3ccccc32)c(=O)n(-c2ccccc2)n1C	19.0	7.9
COC(=O)c1cc2n(n1)CCN(C(=O)Cn1c(C(C)C)nc3ccccc31)C2	2.0	-2.8
CCn1c(=O)c(C(=O)Nc2ccc(I)cc2)c(O)c2ccccc21	9.5	21.3
CCN(CC)Cc1cnc2c(C(=O)N3[C@@H]4CC[C@H]3CNC4)cnn2c1	3.2	1.9
Cc1cc(C(=O)OCc2ccc(F)cc2Br)cc(S(N)(=O)=O)c1C	-3.9	-4.1
Cc1ccc(S(C)(=O)=O)cc1C(=O)OCC(=O)N1CCCC2CCCCC21 (stereo not drawn)	1.0	7.5
O=c1[nH]c(/C=C/c2ccc(Br)cc2)nc(O)c1[N+](=O)[O-]	-8.1	-5.1
COc1ccccc1S(=O)(=O)Oc1ccc(N2CCCC2=O)cc1	9.9	6.8
C=CCNC(=O)N1CCN(C(C(=O)N(C)Cc2ccco2)C2CCCC2)CC1 (stereo not drawn)	3.7	1.9
O=c1oc2ccccc2c(O)c1C=Nc1ccccc1Br	0.6	0.2
Cc1cc(C)cc(NC(=O)CN2CCC(C(=O)NCc3nc4ccccc4[nH]3)CC2)c1	-0.8	-0.9
CCCN1C(=O)C2C(c3cccs3)NN(Cc3ccccc3)C2C1=O (stereo not drawn)	-10.1	-15.0
COCc1cc(=O)[nH]c(N=C(NC(=O)c2ccccc2)Nc2ccccc2)n1	0.1	-7.3
CCOc1cc(Br)c(COc2ccc(C)nc2[N+](=O)[O-])cc1OCC	-0.2	1.8
COc1ccc(N2C(=O)C3C4C=CC(C4)C3C2=O)c(OC)c1 (stereo not drawn)	-13.0	-18.2
CC1(C)OC(=O)C(=CNc2ccccc2)C(=O)O1	-6.7	-12.8
CCn1c(N)c(C(=O)NC)sc1=S	1.7	2.9
CCC1(C)C(=O)NCCN1Cc1nc2ccccc2[nH]1 (stereo not drawn)	8.0	2.9
CC(C)(C)c1cnc(CNC(=O)Nc2cnn(CC3CCCO3)c2)o1 (stereo not drawn)	-4.8	-6.2
The listing continues.
SMILES	NPYLR7 ag	NPYLR7 ag max-min
COCCCCN(C)C(c1ccc(F)cc1)c1ncccn1 (stereo not drawn)	1.3	-0.7
C1=C(CCNc2ncnc3sc4c(c23)CCC4)CCCC1	-4.4	5.5
c1nc(Nc2ccc3c(c2)OCCCO3)c2c3c(sc2n1)CCCCC3	8.4	11.4
CNC1CCCCC1N(C)C1CCN(C)CC1 (stereo not drawn)	17.6	6.6
O=C(O)Cn1c(=O)c(F)cn(C2CCCO2)c1=O (stereo not drawn)	3.2	11.0
CC1CCC(CCC(=O)N(C)c2cc(F)ccc2F)O1 (stereo not drawn)	1.0	0.1
O=C(NCCNc1cc(-n2cccn2)ncn1)Nc1ccc2ccccc2c1	-3.2	-12.2
CCc1cc2c(SCC(=O)Nc3ccc(C)cc3)ncnc2s1	18.7	5.2
O=C(O)c1cc2c(nc3sccn32)s1	1.3	9.2
Cc1ccc(-n2ncc3c(=O)n(NC(=O)c4ccc(OC(C)C)cc4)cnc32)cc1	1.2	-2.5
CCOc1ccccc1N1CCN(C(=O)c2ccc(CSc3nc(Cl)cc(N4CCCCC4)n3)cc2)CC1	21.1	20.0
O=C(NC1CCCc2ccccc21)c1cncn1-c1cccc(-c2ccccc2C(F)(F)F)c1 (stereo not drawn)	10.4	13.4
CN(C)CCNC(=O)[C@@]1(OCc2ccccc2C#N)CC(OCc2cccc(F)c2F)[C@@H]2OC(C)(C)O[C@@H]2C1 (stereo partly drawn)	19.3	13.2
CC1=NN(CCc2ccccc2)c2nc3c(c(=O)n(C)c(=O)n3C)n2C1	2.2	4.2
Cc1cc2c(cc1C)NC(c1ccc(C(F)(F)F)cc1)C1C(=O)CC(C)(C)CC1=N2 (stereo not drawn)	-2.9	-9.8
CCOc1ccc(-c2cc3c(=O)n(CC(=O)Nc4ccc(OCc5ccccc5)cc4)ccn3n2)cc1	2.6	0.8
Cc1cc(C)c(C)c(S(=O)(=O)N2CCN3C(=O)CNC(=O)C3C2)c1C (stereo not drawn)	-5.1	-4.2
COc1ccc(CNC(=O)CN=C2NC(=O)C(c3ccccc3)(c3ccccc3)N2)cc1	5.7	11.2
COc1cccc(C2C(C(=O)OCC3CCCO3)=C(C)NC3=C2C(=O)CCC3)c1OC (stereo not drawn)	0.1	-2.2
Cn1c(=O)c2c(SCC(=O)N3CCCc4ccccc43)nc(-c3ccccc3F)nc2n(C)c1=O	-6.4	-13.4
O=[N+]([O-])c1cc(C(F)(F)F)c(Cl)cc1Nc1ccc(F)c(Cl)c1	-2.0	3.8
CC(C)(C)C(=O)NCc1ccc(C(=O)Cn2cnc3ccccc3c2=O)s1	-0.5	-1.1
CSc1cccc(NC(=O)c2ccc(-n3nc(-c4ccc(Cl)cc4)cc3N)cc2)c1	-6.5	-8.5
COc1ccc(C2CC(=O)C3C(=Nc4ccccc4NC3c3cc(OC)c(O)c(OC)c3)C2)cc1 (stereo not drawn)	-6.4	-11.3
O=C(Nc1cccc(OCc2cccnc2)c1)N1CCCC1	0.3	-0.5
CS(=O)(=O)c1ccc(Nc2cc3c(cn2)cc(-c2ccccc2)n3Cc2ccccc2)cc1	1.8	-2.8
CCN1CCN(c2nc(N)c(C#N)c(CC#N)c2C#N)CC1	-0.5	-1.0
COc1ccc(-n2nc(-c3ccc(C)o3)cc2C(=O)N2CCN(c3cccc(Cl)c3)CC2)cc1	-1.1	0.6
CN1CCC2(CC1)CN(Cc1cccnc1OCC(F)(F)F)CCN2C	5.0	-8.6
CCOC(=O)C1(Cc2ccc(OC)cc2)CCN(S(=O)(=O)c2cc(C)sc2C)CC1	14.2	18.0
Cc1ccc(CSc2nc(=O)[nH]c3c2CCCC3)cc1	-1.9	-3.0
CC(=O)Nc1ccc(S(=O)(=O)Oc2ccc(Cl)cc2CN(CC2CCCO2)C(=O)c2ccco2)cc1 (stereo not drawn)	15.7	16.7
Cc1ccc(Cn2ccnc2CN(C(=O)c2ccco2)C2CC2)cc1	-1.2	6.4
CNC(=O)CC(C)N(C)Cc1c(Cl)nc2c(C)cccn2c1=O (stereo not drawn)	14.1	6.1
CC(C)(C)c1ccc(CSc2ncccc2C(=O)N2CCN(c3ccc(F)cc3)CC2)cc1	-6.0	0.8
N#Cc1cccc(NC(=O)c2ccccc2OC(F)F)c1	1.8	2.5
CCOC(C)c1n[nH]c(=O)n1Cc1cccs1 (stereo not drawn)	-0.6	-3.9
FC(F)(F)c1c2c(nc3[nH]c4ccccc4c13)-c1ccccc1CC2	-4.3	-4.9
Cc1ccc(-c2ccc(OCCNC(=O)C3CC3)nn2)cc1	-5.6	-5.7
COC(=O)CSc1ccc2nnc(CCNC(=O)c3ccccc3)n2n1	-0.9	-2.3
CCOC(=O)C1CCN(CC(=O)N2N=C(c3ccccc3F)CC2c2ccc(Cl)cc2)CC1 (stereo not drawn)	13.0	14.2
COc1ccccc1-c1cc(-c2ccccc2)nc(SC)c1C#N	0.1	-5.8
O=c1c(-c2cccs2)nc2ccccc2n1C1CCCCC1	0.6	-2.6
COc1cccc(NC(=O)Cn2cc(OC)c(=O)cc2CSc2nnnn2C)c1	-3.7	-5.0
Cc1nc(Nc2ccc(NC(=O)C(C)C)cc2)cc(-n2ccnc2)n1	-15.3	-20.5
Clc1ccc2c(NC3CCCCC3)nc(-c3ccco3)nc2c1	-10.6	-9.8
C=CCn1c(SCC(=O)OCc2ccccc2)nnc1-c1cccc(C)c1	-4.3	-1.7
O=C1CC(c2cccc(Cl)c2)Cc2nc3ncnn3cc21 (stereo not drawn)	15.1	7.9
CCS(=O)(=O)Oc1ccc(CN(Cc2ccco2)C(=O)COC)cc1	18.5	16.2

In the list so far, these contain an NH in an aromatic ring.
SMILES	NPYLR7 ag	NPYLR7 ag max-min
CC(C)CN(Cn1[nH]c(C(C)(C)C)nc1=S)C1CC1	9.6	5.7
Nc1cc(-c2cnc3ccccc3n2)c2cc[nH]c2n1	11.6	9.0
CCc1nnsc1C(=O)N1CCc2[nH]nc(-c3cccc(OC)c3)c2C1	0.3	-2.5
CCOc1ccc(Cc2nnc(Nc3cc(C)ccc3C)[nH]c2=O)cc1	11.6	6.8
O=c1[nH]c(/C=C/c2ccc(Br)cc2)nc(O)c1[N+](=O)[O-]	-8.1	-5.1
Cc1cc(C)cc(NC(=O)CN2CCC(C(=O)NCc3nc4ccccc4[nH]3)CC2)c1	-0.8	-0.9
COCc1cc(=O)[nH]c(N=C(NC(=O)c2ccccc2)Nc2ccccc2)n1	0.1	-7.3
CCC1(C)C(=O)NCCN1Cc1nc2ccccc2[nH]1 (stereo not drawn)	8.0	2.9
Cc1ccc(CSc2nc(=O)[nH]c3c2CCCC3)cc1	-1.9	-3.0
CCOC(C)c1n[nH]c(=O)n1Cc1cccs1 (stereo not drawn)	-0.6	-3.9
FC(F)(F)c1c2c(nc3[nH]c4ccccc4c13)-c1ccccc1CC2	-4.3	-4.9
